High-throughput results from PubChem.
Mtb hypoxia inh – Mtb hypoxia fluorescent reporter inhibition | M. tuberculosis hypoxia-regulated fluorescent reporter, fluorescence | fluorescence inhibition, % (test concentration not listed) | actives 0.1% (n = 300,000);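 active = 35 to 45% if threefold the growth effect, above 45% if 1.5-fold the growth effect; inactive = the rest, general growth blockers included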;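 note: wells of about 50 µL received 100 nL stock; 0% = vehicle wells and 100% = reference inhibitor wells; whole bacteria with a GFP reporter of the hypoxia response; strong numbers were not always called active; many hits fall short of the cut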
Sa RN4220 lethal – kills Staphylococcus aureus RN4220; S. aureus RN4220 growth, OD600, 16 h; inhibition, % (concentration not given with the values); actives 0.33% (n = 330,000);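 active = z-score of -3 or lower and OD600 up to 0.18 on both plates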;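 note: plate controls were untreated cells for no effect and reference antibiotic for full effect; stock transfer was 100 nL into about 80 µL; one replicate is shown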
PrP UTR inh – suppresses PrP 5' UTR mRNA reporter expression; actives 0.35% (n = 340,000); cell-based PrP 5' UTR mRNA reporter, plate reader; inhibition, % (test concentration not listed); AID 488862;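 active = every replicate at 50% or more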;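 note: 0 = median of the neutral control wells; tested in H4 reporter cells; numbers are from one replicate; inactives centre near -14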
Sa ugtP lethal – compounds lethal to S. aureus RN4220 ugtP deletion mutant | OD600 growth, 16 h; some inactives read as strong as hits | growth inhibition, % (no concentration beside the values) | actives 0.54% (n = 330,000);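 active = z-score under -3 and OD600 up to 0.15 on both plates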;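 note: plate controls were untreated wells for no effect and antibiotic for full effect; wells of about 80 µL received 100 nL stock; the first replicate is given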
BJeLR viability – BJeLR cell viability loss | BJeLR (HRASV12) viability, CellTiter-Glo ATP luminescence, 48 h; reference of the scale not given here | inhibition, % (no concentration beside the values) | actives 0.17% (n = 300,000);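 active = replicate mean above 50%; inconclusive = above 50% but judged a plate artefact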;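 note: 50 nL library stock added to about 25 µL; numbers are from one replicate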
Autofluor counter – compound fluorescence in toxin protease inhibitor counterscreen | AID 624483 | compound autofluorescence counterscreen, microsphere flow cytometry; stronger effect = higher value | actives 3.1% (n = 360,000) | fluorescence intensity (test concentration not listed);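 active = at least 3 SD above the mean of all compounds, about 16000 in these data; inconclusive = too few beads counted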;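 note: 100 nL of 1 mM stock went into each well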
Mtb hypoxia inh growth – second read-out of Mtb hypoxia inh, no call of its own (marks repeat the call); growth inhibition, %; measured here: M. tuberculosis growth (absorbance);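 0% = vehicle and 100% = reference antibiotic; read after six days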
The depositor's hits bear a star; ? = inconclusive; / = no result given. Compounds were not picked by outcome; any-hit rate near 4%.

canonical_smiles	Mtb hypoxia inh growth	PrP UTR inh	BJeLR viability	Mtb hypoxia inh	Sa ugtP lethal	Sa RN4220 lethal	Autofluor counter
CC(=O)N1CCCc2cc(S(=O)(=O)CCC(=O)N3CCN(c4cccc(C)c4)C(C)C3)ccc21 (stereo not drawn)	0	-19	-6	8	17	4.2	5704
O=C(NC(=S)N1CCOCC1)c1ccc(F)cc1	4	2	-5	-4	1	0.2	5481
O=C(NCCc1ccccc1)c1ccc2nc(-c3ccco3)c(-c3ccco3)nc2c1	9	-19	-5	5	20	19	4877
Nc1nc2ccccc2n1/N=C/c1ccc(Br)cc1	/	-46	1	/	/	/	5284
CCOC(=O)c1cc(-c2ccc(Cl)cc2)nc2c1c(=O)[nH]c(=O)n2CCOC	15	49	-10	16	10	2.0	4197
COC(=O)c1cn(CC(=O)Nc2ccc(F)cc2)c2ccccc12	/	-9	-7	/	/	/	4470
COc1cccc(N(C(=O)CNC(=O)c2ccco2)C(C(=O)NC2CCCCC2)c2cccnc2)c1 (stereo not drawn)	3	-5	-8	1	-5	-2.4	3063
Cc1ccsc1/C=N\Nc1cn[nH]c(=O)c1Cl	/	-28	2	/	/	/	4388
Cc1ccc(SCC(=O)NCC(C)C)cc1	6	-19	-1	3	0	3.4	3851
Cc1[nH]ccc2c1[nH]c1cc(=O)ccc12	/	2	1	/	/	/	5438
O=C(Nc1ccc2ccccc2n1)Nc1ccccc1F	0	-12	8	-3	-8	3.1	3415
COc1ccc(C=NNc2nc(C)cc(-c3ccccc3)n2)cc1OC	-3	/	/	-7	3	9.0	/
C=CCn1c(Cc2ccccc2)nnc1SCc1nc2ccccc2c(=O)[nH]1	2	-4	1	-3	5	2.0	4401
COc1ccc(C2=NO[C@@H]3[C@@H]4C[C@@H]([C@H]5C(=O)N(C)C(=O)[C@@H]45)[C@H]23)c(OC)c1	1	/	3	11	9	1.7	5929
COC(=O)Nc1ccccc1C(=O)N1CCN(c2ccc(C)cc2)CC1	4	5	0	11	-2	0.2	2561
COc1ccc(C(=O)Nc2cc(-c3nn4c(C)nnc4s3)ccc2C)cc1	/	-18	-14	/	-3	1.3	5637
CC(=O)Nc1cccc(NC(=O)C2CCCN2C(=O)Nc2ccccc2C)c1 (stereo not drawn)	-2	-21	-1	5	18	4.9	13374
O=C(CCc1nc2ccccc2c(=O)[nH]1)Nc1nnc(SCc2ccc(F)cc2)s1	-7	-13	4	-8	0	1.6	5722
CCC1CCCCN1CC(=O)c1ccc(OC(F)F)cc1 (stereo not drawn)	/	-15	14	/	/	/	9186
Cc1cc2cc(C(c3nnnn3CC3CCCO3)N3CCCc4ccccc43)c(=O)[nH]c2cc1C (stereo not drawn)	1	-1	5	-4	-28	-0.2	24311*
C[C@@H](C(=O)N=c1sc2ccccc2n1C)N1C(=O)C2CC=CCC2C1=O (stereo partly drawn)	3	-1	/	6	4	4.1	4278
CN(Cc1ccccc1)C(=O)C1CCC(CNS(=O)(=O)c2cccc3cccnc23)CC1 (stereo not drawn)	-14	-48	-9	-7	-4	-0.7	4703
CCCCCCCC#Cc1ccccc1C=NS(=O)c1ccc(C)cc1 (stereo not drawn)	-1	/	/	5	99*	-2.4	/
Clc1ccc(Cn2ncc3c(NCCN4CCOCC4)ncnc32)cc1	/	-3	4	/	-12	-4.7	4774
COc1cc(OC)cc(C(=O)NCCNc2nc3cc(C)cc(C)c3cc2C#N)c1	5	-12	-7	5	-3	6.8	3935
O=[N+]([O-])c1ccccc1OCC(O)CNC1CCCC1 (stereo not drawn)	7	-18	-3	14	-8	2.8	4842
Cn1c(-c2ccc(C=O)s2)nc2ccccc21	11	2	3	8	-6	4.2	3416
COc1cc(C(=O)OCCC(C)C)cc(OC)c1O	7	-3	6	9	9	-0.1	3224
O=C(CN1CCOc2ccccc21)N1CCCC1	/	-22	-5	/	2	2.0	5883
NC(=O)/C=C\c1cn(-c2ccccc2)nc1-c1ccc2c(c1)OCCO2	10	-2	4	2	-1	7.0	2068
CSCCC(NS(=O)(=O)c1ccc2c(c1)oc(=O)n2C)C(=O)NC1CCC(C)CC1 (stereo not drawn)	2	-2	6	2	-3	-11	6529
COCC=CC1=CC2=CC(=O)C(C)(OC(=O)c3cnc4ccccc4n3)C(=O)C2=CN1CCN1CCOCC1 (stereo not drawn)	2	/	/	8	-3	10	/
CCC(C)NC(=O)Cc1c(C)c2cc3c(cc2oc1=O)OC(C)(C)CC3 (stereo not drawn)	3	-46	5	4	7	0.1	3550
CCCCC(=O)Nc1ccccc1CC	10	-24	-9	5	1	3.5	5181
Cc1ccc(-c2nc(CS(=O)(=O)CC(=O)NCCN3CCOCC3)c(C)o2)cc1	13	8	-1	3	1	0.5	?
Nc1ccc(Oc2ccc(Cl)cc2)cc1	-13	-23	-3	0	10	-2.0	9519
COc1ccccc1/C=C1\CCCC2=C1Nc1nnnn1C2c1ccccc1OC (stereo not drawn)	4	-12	/	10	-7	0.9	2108
CN(Cc1ccccc1Cl)C(=O)C1CC(=O)N(c2ccc3c(c2)OCCO3)C1 (stereo not drawn)	-5	-24	/	0	12	4.4	4586
Cc1cc(NC(=O)c2cccc(S(=O)(=O)N(C)C)c2)n(-c2ccccn2)n1	4	-1	-4	15	0	3.6	4152
COc1cc(OC)cc(C(=O)N2CCC3(CC2)NCCc2[nH]cnc23)c1	9	-1	-4	13	1	3.0	6079
COC(=O)c1cc(OC)c(OC)cc1NC(=O)CN1CCOCC1	7	-24	19	-7	-1	3.2	9953
O=C(C1CCCN(S(=O)(=O)c2ccccc2)C1)N1CCN(c2ccc(F)cc2)CC1 (stereo not drawn)	-2	-1	3	-1	0	-2.1	5542
CCN(CC)S(=O)(=O)c1ccc2c(c1)nc(SCC(=O)N1CCCCCC1)n2-c1ccc(OC)cc1	3	-8	-3	14	-1	3.9	2914
CCCCC1(C)NC(=O)N(CC(=O)N2CCc3ccccc32)C1=O (stereo not drawn)	1	-18	/	6	0	4.4	4012
COc1cc(/C=C2\COC/C(=C\c3ccc(O)c(OC)c3)C2=O)ccc1O	23	-24	-5	9	-1	4.3	3459
Cn1c(=O)c2c(nc(NCc3ccccc3)n2CC(N)=O)n(C)c1=O	0	-18	17	-7	-2	2.3	5717
O=C1C2CCN(CC2)[C@@H]1Cc1ccc2ccccc2c1O	/	-21	12	/	/	/	3339
CC(C)[C@H](NC(=O)c1cccc(S(=O)(=O)N2CCCC2)c1)c1nc2ccccc2[nH]1	/	-20	-6	/	/	/	2380
CC1CCN(C(=O)c2[nH]cnc2C(=O)N[C@@H](C)C(=O)OCc2ccccc2)CC1	/	-19	14	/	/	/	2883
Cc1cccc(NC(=O)CCc2ccc(C)o2)c1	/	-25	-2	/	4	2.5	4302
CCCCc1nc(SCC(=O)Nc2nnc(CCCC)s2)n[nH]1	9	0	2	5	7	10	4262
O=C(O)c1cc(NC(=O)c2ccccc2F)cc(NC(=O)c2ccccc2F)c1	-1	-29	-5	-4	7	7.5	4248
CC(=O)Nc1ccc(NC(=O)C2(C)CC2(Cl)Cl)cc1 (stereo not drawn)	16	-9	10	10	1	2.4	4268
Cc1noc(C)c1COc1ccc(C(=O)N2CCN(S(=O)(=O)c3ccc(F)cc3)CC2)cc1	6	-23	/	10	2	4.8	3710
Cc1nn(-c2ccccn2)c2c1C(c1c(F)cccc1Cl)C1=C(N2)c2ccccc2C1=O (stereo not drawn)	0	/	-9	-2	-14	-11	/
O=C(COC(=O)c1ccc(N2CCCC2=O)cc1)c1ccc(OC(F)F)cc1	2	-26	-8	13	0	5.6	3636
O=C(NCC1CCCN1S(=O)(=O)c1cccs1)c1cccc(F)c1 (stereo not drawn)	4	2	-2	4	1	1.7	/
O=C(C1CCCCN1S(=O)(=O)c1ccccc1[N+](=O)[O-])N1CCCC1 (stereo not drawn)	15	-2	0	18	6	4.8	3366
Cn1nc(-c2ccc(N3CCCCC3)c(NC(=O)c3ccco3)c2)c2ccccc2c1=O	3	17	-17	-18	-14	-0.9	23305*
CC(=O)N1CCOc2ccc(S(=O)(=O)NCCc3ccc(Cl)cc3)cc21	2	-4	11	16	6	4.2	5834

Of the compounds above, these have a thiophene ring, fused or not.
canonical_smiles	Mtb hypoxia inh growth	PrP UTR inh	BJeLR viability	Mtb hypoxia inh	Sa ugtP lethal	Sa RN4220 lethal	Autofluor counter
Cc1ccsc1/C=N\Nc1cn[nH]c(=O)c1Cl	/	-28	2	/	/	/	4388
Cn1c(-c2ccc(C=O)s2)nc2ccccc21	11	2	3	8	-6	4.2	3416
O=C(NCC1CCCN1S(=O)(=O)c1cccs1)c1cccc(F)c1 (stereo not drawn)	4	2	-2	4	1	1.7	/

More entries follow:
canonical_smiles	Mtb hypoxia inh growth	PrP UTR inh	BJeLR viability	Mtb hypoxia inh	Sa ugtP lethal	Sa RN4220 lethal	Autofluor counter
COc1ccc(C=Cc2nc(-c3ccccc3O)n(-c3ccccc3)n2)cc1	3	/	/	5	-2	4.7	/
COc1ccc(CCNC(=O)C(=O)NCC2CCCN2S(=O)(=O)c2cccs2)cc1OC (stereo not drawn)	5	-15	7	1	5	2.4	8330
CCCCNC(=O)CC1C(=O)N(Cc2ccccc2)C(C)c2nc3ccccc3n21 (stereo not drawn)	9	-17	-6	4	9	2.7	10708
CCOC(=O)CSc1nnc(Cc2ccccc2)n1-c1ccc(C)cc1	/	-19	-1	/	-7	1.0	4009
COc1ccc(NC(=O)Cn2cnc3sc(C)c(S(=O)(=O)N4CCOCC4)c3c2=O)c(OC)c1	4	-1	-9	1	0	0.7	3522
COc1ccccc1P(=O)(c1ccccc1)c1ccc([N+](=O)[O-])cc1 (stereo not drawn)	7	-23	3	12	3	3.4	3768
CCOc1cc(C=NNc2nnc(C)n2N)ccc1OC(C)=O	12	/	/	5	5	-2.3	/
CCc1ccc(NC(=O)CCS(=O)(=O)c2ccc(Br)cc2)cc1	3	-6	1	-15	11	9.0	3107
C=CCc1cccc2cc(C(=O)NCc3ccc(C(=O)OCC)o3)c(=O)oc12	1	7	3	-2	-7	0.2	6093
CCN1CCN(C(=S)c2ccc(O)cc2)CC1	3	-14	3	4	3	-0.1	3991
Nc1o[nH]c(=O)c1C1CCCCC1	5	-12	/	4	-9	-3.8	2907
CCN1CCN(C(c2ccccc2)c2nnnn2Cc2ccc(OC)cc2)CC1 (stereo not drawn)	11	-31	8	0	-3	-4.9	4280
COc1cccc(C=NNC(=O)CSc2ccccc2C)c1OC	4	/	/	8	11	3.6	/
C=C(C)CSc1cc(C)nc2c(-c3ccccc3)c(C)nn12	2	-29	-3	7	28	4.5	3896
